Bioassay records (PubChem BioAssay)
Rango release inh: inhibitors of RanGTP-induced Rango-importin beta complex dissociation. Potency, µM (highest dose often 46.1 µM), for the others: at the highest dose activity change, negative = inhibition. Biochemical FRET Rango-importin beta, RanGTP-induced dissociation. 340,000 compounds, 0.071% hits. O95149+P62826. AID 540253; active means falling FRET ratio curve, often poorly fitted, with flat reads before Ran was added; inconclusive means other falling curves, or compound fluorescence or quenching; inactive means flat or rising ratio curve;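 further: potency means the concentration at half of the fitted maximal effect; % of control where 0% means no effect; nearly all actives have a fitted effect of over 45% in size; -100% = wells without RanGTP and RCC1; the record marks most hits as doubtful in a second field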
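Compounds preincubate 5 min with complex of recombinant Rango and importin beta in PBS with 1 mM DTT. Ran (0.6 uM) loaded with 2 mM GTP plus 0.2 uM RCC1 starts dissociation; FRET is recorded 45 min later.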
miR-21 FLuc: miR-21 reporter, rising signal | Potency, µM (doses to about 38.3 µM), for inactives: top-dose reporter change, positive = more light | HeLa miR-21 FLuc reporter, luciferase, 48 h | 340,000 tested, under 10 active; active = well fitted rising curve with a large enough effect; inconclusive = small, poorly fitted or top-dose-only effect; inactive = no such curve, though single readings can be large or run the other way;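 further: % of control where 0% means no effect; miR-21 action dims this reporter so a rising signal means less miR-21 action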
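Using DMEM plus 10% FBS, HeLa miR-21-FLuc cells are incubated with test compounds (final up to about 40uM) for 48 hours; firefly luciferase signal is then imaged following reagent-mediated lysis.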
GLA inh pH 4.5: inhibitors of human alpha-galactosidase A at pH 4.5 | activity change, negative = inhibition, % at 105 µM | P06280 | purified enzyme, 4-MU-alpha-Gal fluorescence, pH 4.5 | 230,000 tested, under 10 active | AID 1467; inconclusive = small, poorly fitted or top-dose-only inhibition, or a rising curve; inactive = flat fitted curve, though single readings scatter; no compound was filed as active;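 further: 0% = full activity with enzyme and -100% = basal without enzyme; dose as in the result columns while the protocol names 77 µM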
Target sequence (P06280 whole entry, looked up): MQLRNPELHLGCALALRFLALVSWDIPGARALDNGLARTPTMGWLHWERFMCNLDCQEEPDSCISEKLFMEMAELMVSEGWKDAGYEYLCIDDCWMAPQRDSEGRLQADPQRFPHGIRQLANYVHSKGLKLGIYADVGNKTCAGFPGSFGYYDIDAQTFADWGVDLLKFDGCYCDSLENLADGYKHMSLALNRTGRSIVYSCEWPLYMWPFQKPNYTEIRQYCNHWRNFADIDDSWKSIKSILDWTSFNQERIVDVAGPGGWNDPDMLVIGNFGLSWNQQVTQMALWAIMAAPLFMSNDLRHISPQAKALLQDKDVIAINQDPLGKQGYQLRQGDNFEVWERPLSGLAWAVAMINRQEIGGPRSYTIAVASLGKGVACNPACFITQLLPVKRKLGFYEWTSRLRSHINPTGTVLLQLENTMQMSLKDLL
Rango complex inh: inhibitors of Rango-importin beta complex formation; Q14974; Rango CFP/YFP FRET sensor + importin beta, 45 min; Potency, µM (top dose mostly 92.2 µM), without a hit: at the highest dose inhibition of complex formation; 340,000 compounds, 0.031% hits; AID 540263; active = rising FRET ratio curve, often small or poorly fitted; inconclusive = mostly compound fluorescence or quenching in the first reads; inactive = flat curves in all reads;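 further: potency means the concentration at half of the fitted maximal effect; 0% = DMSO wells and 100% = buffer wells lacking importin beta; nearly all actives have a fitted effect of over 15% in size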
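FRET biosensor Rango (snurportin 1 IBB between N-terminal EYFP and C-terminal Cerulean), 50 nM in PBS/1 mM DTT/0.02% Tween-20/0.1% BSA, preincubated 5 min RT with compound; 0.125 microM importin beta added, 45 min RT, CFP/YFP FRET ratio read.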
* hit, by the source's call; ? = inconclusive; nt = not tested or not shown; & = joins results of further samples; [ ] = another dose, or the depositor's remark. This is a subset; the hit share may differ from the screen's.

SMILES | Rango release inh | miR-21 FLuc | GLA inh pH 4.5 | Rango complex inh
Cn1nc(C(C)(C)C)c(NC(=O)c2cccs2)c1C(C)(C)C | -12% | 0% | -8 | -3.3%
CC1CCN(S(=O)(=O)c2ccc(NC(=O)Cc3cccs3)cc2)CC1 | -23% | -2% | -13 | -3.9%
O=S(=O)(c1ccc(N2CCN(Cc3ccc4c(c3)OCO4)CC2)nc1)N1CCOCC1 | nt | 0% | -8 | nt
CCOc1ccccc1CNC(=O)C(C)n1nc(C)c2c(C)n(-c3ccccc3)nc2c1=O (configuration not stated) | -15% | 18% | nt | -1.0%
CCCN(CCC)C(=O)Cn1c(=O)n(CCCCC(=O)NCc2ccco2)c(=O)c2ccccc21 | -8% | 3% | -3 | 0.1%
COc1nc(N)nc(N)c1NS(=O)(=O)c1ccc(C)cc1 | 12% | 4% | nt | -2.4%
Cc1ccccc1NC(=O)c1sc2nc3c(c(-c4ccco4)c2c1N)CCC3 | ? | -17% | 2 | ?
CC1(C)OC2CC3C4CCC5=CC(=O)CCC5(C)C4(F)C(O)CC3(C)C2(C(=O)CO)O1 (configuration not stated) | 21% | nt | nt | -2.8%
Cc1ccnn2c(-c3ccccc3)c3c(=O)n(C)c(=O)n(C)c3c12 | nt | -5% | 3 | nt
Cc1noc(C)c1C(=O)OC(C(=O)NC1CCCC1)c1ccc(F)cc1 (configuration not stated) | -5% | 4% | -5 | -2.9%
S=C(Nc1ccc2cn[nH]c2c1)Nc1ccccc1Cl | 0% | -42% | -1 | 4.0%
COc1ccc(-c2ccc3c(c2)c(C#Cc2ccsc2)c(-c2cc(OC)cc(OC)c2)n3C)cc1 | -11% | nt | nt | 0.0%
O=C(N/N=C/c1ccccc1)c1ccco1 | 20% | -35% | -1 | 0.0%
O=[N+]([O-])c1ccccc1-c1ccc(CN2CCN(c3ccccc3)CC2)o1 | -6% | -1% | nt | 0.1%
COc1ccc(C(=O)Nc2cc(S(=O)(=O)N3CCCCC3)ccc2OC)cc1 | 0% | nt | nt | 4.0%
Cc1cc([N+](=O)[O-])ccc1N(C)C | 0% | 1% | 2 | -1.2%
O=C(NCCc1ccccn1)c1nc(Cn2ccc([N+](=O)[O-])n2)no1 | 2% | -1% | nt | 1.8%
Cc1ccc(-n2ncc(C(=O)NCC3CCN(C4CCCC4)C3)c2C2CCN(C(=O)OC(C)(C)C)CC2)cc1C (configuration not stated) | 24% | 0% | nt | 0.7%
C[C@@H]1CCC[C@]2(O[C@@H](CCO)C[C@@H](O)[C@@H]2O)O1 | -3% | nt | nt | 0.8%
CC(=O)Nc1ccc(NC(=O)COc2ccc(S(=O)(=O)NC(C)c3ccccc3)cc2)cc1 (configuration not stated) | -4% | 9% | -5 | -1.9%
CN(C)c1ccc(C(c2nnnn2C(C)(C)C)N2CCN(C(=O)c3ccco3)CC2)cc1 (configuration not stated) | -3% | -6% | -2 | 1.2%
CCN1C(=O)c2cccc3c(S(=O)(=O)N(C(=O)c4cccnc4)c4ccc(OC)cc4)ccc1c23 | ? | 16% | -2 | ?
CN(c1ccc(C(=O)N2CCN(Cc3ccc4c(c3)OCO4)CC2)cc1)S(=O)(=O)c1ccccc1 | -3% | 24% | 0 | 0.0%
N#Cc1ccccc1-c1ccccc1C(=O)N1CCCCC1 | 33% | 0% | nt | 3.0%
CCOc1ccccc1NC(=O)C(NC(=O)C1CCC(C)CC1)C(C)C (configuration not stated) | ? | 0% | 4 | -2.4%
SMILES | Rango release inh | miR-21 FLuc | GLA inh pH 4.5 | Rango complex inh
CCOc1ccc(-c2nnn(CC(=O)N3CCCC3)n2)cc1OCC | -5% | -3% | -10 | -5.2%
C=C(C)CNC(=S)N/N=C(\C)c1ccc(Cl)s1 | -8% | -15% | -6 | -2.7%
CC(=O)Nc1cccc(OCCCNC(=O)c2ccc(C(C)(C)C)cc2)c1 | 4% | -7% | -8 | -7.0%
Cc1cc(C)n(/N=C/c2cccc(O)c2)c(=O)c1C(N)=O | -6% | -6% | 0 | 1.9%
COc1ccc(OC)c(NS(=O)(=O)c2cccs2)c1 | 1% | -6% | -1 | -1.0%
CCc1nnc(NC(=O)[C@@H](NC(=O)c2cccc(S(=O)(=O)N3CCOCC3)c2)C(C)C)s1 | -10% | -9% | -6 | 5.6%
CCOC(=O)NCc1ccc2c(c1)cc(C)n2C | -19% | -21% | -2 | ?
O=C1/C(=C/c2ccccn2)SC(=S)N1Cc1ccccc1 | -12% | -2% | 0 | 5.5%
CCn1nc(C)c(CNC(=O)c2cc(COc3cncc(Cl)c3)on2)c1C | 8% | 16% | nt | -1.9%
COc1ccc(CCN(Cc2cc3cccc(C)c3[nH]c2=O)C(=O)N2CCCC2)cc1OC | 12% | -6% | -3 | -0.1%
COc1ccc(Cl)cc1C(=O)NNC(=O)CNC(=O)c1ccc(C)s1 | 22% | nt | nt | -2.6%
COC(=O)Cn1cnc2sc(C)c(S(=O)(=O)N3CCN(c4ccccc4OC)CC3)c2c1=O | 1% | -1% | -1 | -0.3%
Cc1ccc(-c2csc(NC(=O)c3ccc(F)cc3)c2C(=O)O)cc1 | 0% | 15% | nt | -4.7%
CCc1ccccc1NC(=O)CN(C)C(=O)COc1ccc(C)nc1[N+](=O)[O-] | 1% | -3% | -4 | 1.5%
CCNc1nc(N)nc(Oc2ccc(OCc3ccccc3)nn2)n1 | -13% | -20% | 1 | -1.4%
O=C(NN=C1C2CC3CC(C2)CC1C3)c1cccs1 | 7% | -48% | 7 | 7.3%
COc1ccccc1-c1nnc(SCC(=O)Nc2ccc(Cl)cc2Cl)o1 | -11% | -21% | -1 | -1.9%
CCCCCc1nc(N)c(C#N)c(-c2ccco2)c1CCCC | -14% | 0% | 8 | -0.2%
COc1ccc(-c2cc(C(=O)NCC(c3ccco3)N(C)C)c3ccccc3n2)cc1OC (configuration not stated) | -2% | nt | nt | 1.0%
COC(=O)[C@]1(Cc2ccccc2)N[C@H](CN(C)S(=O)(=O)c2ccc(F)cc2)[C@@H]2C(=O)N(C)C(=O)[C@@H]21 | 9% | nt | nt | -0.9%
CC[C@]1(C(=O)OC)[C@H]2C(=O)N(C)C(=O)[C@H]2[C@H]2CN(C)C(=NCc3ccccc3)N21 | -12% | nt | nt | -3.4%
CCCN1CCN(CCCNC(=O)c2ccc3c(Cl)c4c(nc3c2)CCCC4)CC1 | -4% | -1% | nt | 2.1%
COc1ccc(NC(=O)CCNS(=O)(=O)c2cccc3nonc23)c(OC)c1 | -4% | -3%&1% | nt | 2.6%
O=C(O)c1cccc2c1C(=O)N(C1CCCCC1)C2 | -9% | -2% | -1 | 2.1%
O=C(NCCN1CCN(c2cccc(Cl)c2)CC1)c1ccc(CSc2nc3ccncc3[nH]2)cc1 | -11% | 30% | -2 | -1.6%

Part of the list above, with values ahead of the structure.
Rango release inh	miR-21 FLuc	GLA inh pH 4.5	Rango complex inh	canonical_smiles
1%	-1%	-1	-0.3%	COC(=O)Cn1cnc2sc(C)c(S(=O)(=O)N3CCN(c4ccccc4OC)CC3)c2c1=O
0%	15%	nt	-4.7%	Cc1ccc(-c2csc(NC(=O)c3ccc(F)cc3)c2C(=O)O)cc1

Following part:
SMILES | Rango release inh | miR-21 FLuc | GLA inh pH 4.5 | Rango complex inh
Cc1cccc(NC(=O)CN(C2=NC3CS(=O)(=O)CC3S2)c2ccccc2F)c1 (configuration not stated) | -1% | 11% | nt | 0.3%
O=C(c1cnn2ccccc12)N1CCc2ccccc21 | ? | -55% | -13 | 4.3%
O=C(CCNC(=O)c1ccc([N+](=O)[O-])cc1)NCCCN1CCCC1=O | -3% | 0% | nt | 0.7%
CCCOc1ccc(C(CC(=O)O)NC(=O)C23CC4CC(CC(C4)C2)C3)cc1 (configuration not stated) | -1% | -7% | 2 | -4.0%
CC(C)(C)c1ccc(C(=O)NNc2cc(Cl)cc(Cl)c2)cc1 | 3% | -8% | -2 | 0.4%
Cc1ccc2c(c1)Sc1ccccc1CC2=O | 0% | -10% | 0 | -0.7%
CC(C)(C)C1CCc2onc(C(=O)Nc3ccc(F)cc3F)c2C1 (configuration not stated) | 0% | -15% | 0 | -2.2%
CC(C(=O)NCc1cccc(Cl)c1)N1C(=O)c2ccccc2C1=O (configuration not stated) | -12% | -2% | nt | -4.3%
COC(=O)CN(c1ccc(C)c(Cl)c1)S(C)(=O)=O | 16% | -10% | 6 | 1.9%
CC(C)C(=O)Nc1cccc(-c2cn3ccsc3n2)c1 | 17% | -25% | -8 | 5.1%
CCCN1CCN(C(=O)CCCNC(=O)Cn2cnc3sc(C)c(C)c3c2=O)CC1 | 12% | -3% | -4 | -1.7%
OC1CCCN(Cc2c3ccccc3cc3ccccc23)C1 (configuration not stated) | -14% | 14% | -10 | 5.7%
CC(=O)N1CC=C2C(C#N)=C(N)C(C#N)(C#N)C(C)C2C1 (configuration not stated) | ? | 0% | 10 | ?
CCOC(=O)C1(Cc2ccc(Cl)cc2)CCN(CCCn2cccn2)CC1 | -3% | 3% | 6 | 0.8%
COc1cnc(-c2ccccn2)nc1Sc1ccccc1Cl | -2% | 26% | -24 | 6.7%
CCOC(=O)c1c(NC(=O)C[n+]2ccc(Cc3ccccc3)cc2)sc(C)c1C | 12% | 22% | -4 | 7.9%
O=C(c1ccc2ccccc2c1)c1c[nH]cc1-c1ccccc1 | 0% | -34% | 2 | -0.2%
CC1CCCCN1C(=O)CSc1nnc(-c2ccco2)n1C (configuration not stated) | 0% | 2% | nt | -2.5%
O=C1C(Cc2ccccc2)Nc2ncnc(N3CCOCC3)c2N1Cc1ccc(Cl)cc1 (configuration not stated) | -7% | nt | nt | -2.4%
O=C(NC1=NCCS1)c1cc(-c2cccc(Br)c2)nc2ccccc12 | -7% | -3% | -27 | 0.7%
CN(C)c1ccc(NC(=O)CN2CCN(CC(=O)Nc3ccc(F)cc3)CC2)cc1 | 6% | -8% | 1 | 0.7%
O=C(CSc1n[nH]c(-c2cccnc2)n1)Nc1ccnc2ccccc12 | -10% | 1% | 4 | -12%
CCOC(=O)CSc1nnc(C2CCCCC2)n1C | -5% | -4% | -3 | 0.5%
Cc1csc(SC(C)C(=O)NCC2CCCCC2)n1 (configuration not stated) | -4% | -3% | 6[21.1 µM] | 4.8%
O=C(COc1ccc([N+](=O)[O-])cc1)Nc1nc(-c2ccccn2)cs1 | -5% | nt | nt | 0.1%
SMILES | Rango release inh | miR-21 FLuc | GLA inh pH 4.5 | Rango complex inh
C/C(=C1/SC(N2CC(C)OC(C)C2)=NC1=O)c1ccccc1 (configuration not stated) | ? | -6% | 0 | -1.8%
CN(C)c1cccc(C(=O)OCC(=O)N2CCc3ccccc3C2)c1 | 6% | -6% | -8 | -0.4%
O=C(c1ccccc1)c1cc2cc(Cl)ccc2[nH]1 | -3% | -46% | nt | -1.4%
O=C(/C=C/c1ccc(Br)cc1)NC(=O)c1ccccc1O | -4% | -30% | 3 | 2.7%
Cn1cc(C(=O)Nc2ccc(F)c(F)c2)cn1 | -5% | -13% | -2 | 0.1%
CS(=O)(=O)c1ccc(C(=O)NC(Cc2ccccc2)c2ccccc2)cc1 (configuration not stated) | 0% | -3% | nt | -1.8%
O=C(O)c1ccc2c(c1)C(=O)/C(=C\c1ccco1)C2=O | -12% | 2% | -1 | ?
Cc1cccc(C)c1OC(=O)CSc1nnc(-c2ccccc2)o1 | 1% | -3% | 1 | 0.5%
CC1(C)CC2(CCO1)OC(=O)CC2C(=O)Nc1ccc(Br)cc1 (configuration not stated) | 2% | 0% | -18 | 4.1%
O=C(O)c1cc2c(ccc3ccccc32)o1 | -17% | -6% | 6 | 1.4%

Filtered by structure: those above with a COOH group
SMILES | Rango release inh | miR-21 FLuc | GLA inh pH 4.5 | Rango complex inh
Cc1ccc(-c2csc(NC(=O)c3ccc(F)cc3)c2C(=O)O)cc1 | 0% | 15% | nt | -4.7%
O=C(O)c1cccc2c1C(=O)N(C1CCCCC1)C2 | -9% | -2% | -1 | 2.1%
CCCOc1ccc(C(CC(=O)O)NC(=O)C23CC4CC(CC(C4)C2)C3)cc1 (configuration not stated) | -1% | -7% | 2 | -4.0%
O=C(O)c1ccc2c(c1)C(=O)/C(=C\c1ccco1)C2=O | -12% | 2% | -1 | ?
O=C(O)c1cc2c(ccc3ccccc32)o1 | -17% | -6% | 6 | 1.4%
